HSV augment: increases HSV replication in cells | HSV replication augmentation in cells, fold increase | maximum fold increase | 220,000 tested, 0.005% active;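 active = peak rise of 1.5-fold or more in the series; inconclusive = self-fluorescent or not available for retest; tested in PC3 cells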;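 note: first round at 10 µM; read as green reporter fluorescence; hits show the peak of a series up to 25 µM; 1 = signal of infected wells without compound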
PKD1 inh: inhibitors of human PKD1 kinase. Q15139. 200,000 tested, 0.056% active. AID 797. PKD1 kinase fluorescence polarization assay. inhibition, %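 (about 10 µM by stock and volumes)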;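 active = inhibition of 50% or more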;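 note: controls were vehicle for no effect and a reference inhibitor for full effect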
GALR2 agonist: GALR2 (human) receptor agonism; O43603; AID 803; activation, %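 (tested at 5 µM)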; GALR2-expressing cells, agonist activation read-out; 140,000 tested, 0.48% active;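 active = above mean plus 3 SD of all compounds, about 5% in these data, not always enough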;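 note: 0% = vehicle buffer wells and 100% = reference agonist at full effect; tested in CHO reporter cells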
Target sequence (O43603 whole entry, looked up): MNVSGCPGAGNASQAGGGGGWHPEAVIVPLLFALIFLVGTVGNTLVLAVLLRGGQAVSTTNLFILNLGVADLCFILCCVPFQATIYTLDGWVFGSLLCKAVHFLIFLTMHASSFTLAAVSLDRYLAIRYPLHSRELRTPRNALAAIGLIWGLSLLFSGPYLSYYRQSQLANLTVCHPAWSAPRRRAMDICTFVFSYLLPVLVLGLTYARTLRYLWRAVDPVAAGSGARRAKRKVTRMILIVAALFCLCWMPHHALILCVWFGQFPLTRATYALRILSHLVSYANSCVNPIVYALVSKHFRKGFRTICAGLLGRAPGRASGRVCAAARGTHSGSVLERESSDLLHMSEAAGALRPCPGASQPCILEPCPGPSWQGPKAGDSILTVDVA
RGS16-Gao: modulates binding between human RGS16 and Galphao | AID 1441 | binding response (% of control), % at 10 µM | bead-based flow cytometry RGS16-Galphao binding, fluorescence; actives lie on both sides | 220,000 tested, 0.38% active;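 active = below 25% or above 175%, edge rows of some plates excepted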;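 note: Galphao activated by GDP with aluminum fluoride before binding; 100% = wells without compound and 0% = beads without RGS; some results beyond the cut were filed as inactive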
Target sequence (O15492 whole entry, looked up): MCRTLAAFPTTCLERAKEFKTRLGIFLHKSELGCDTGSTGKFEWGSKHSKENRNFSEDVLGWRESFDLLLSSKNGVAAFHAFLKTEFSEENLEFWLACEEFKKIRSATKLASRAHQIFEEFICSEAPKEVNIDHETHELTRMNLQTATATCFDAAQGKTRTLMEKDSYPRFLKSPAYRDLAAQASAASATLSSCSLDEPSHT
Target sequence (P09471 whole entry, looked up): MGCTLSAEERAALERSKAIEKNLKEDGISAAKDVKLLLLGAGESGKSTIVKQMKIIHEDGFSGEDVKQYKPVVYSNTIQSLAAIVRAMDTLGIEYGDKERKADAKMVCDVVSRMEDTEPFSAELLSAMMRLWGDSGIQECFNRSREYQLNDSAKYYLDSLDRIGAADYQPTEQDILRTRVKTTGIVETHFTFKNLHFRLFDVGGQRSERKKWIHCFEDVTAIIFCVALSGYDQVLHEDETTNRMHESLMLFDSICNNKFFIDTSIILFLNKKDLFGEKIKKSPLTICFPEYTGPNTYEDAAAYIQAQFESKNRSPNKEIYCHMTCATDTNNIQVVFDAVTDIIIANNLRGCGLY
INS promoter inh: TRM-6 insulin promoter activity inhibition. TRM-6 cells (human fetal islet line), insulin promoter-eGFP reporter, imaging; reporter expression induced with tamoxifen. inhibition, % at 2 µM. 130,000 tested, 0.9% active. AID 1273;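 active = inhibition above the mean plus 3 SD, with well images judged a real hit on visual review, cut at about 60% in these data, passing the limit was not always enough; inconclusive = inhibition over the cutoff but images rejected on review; inactive = inhibition not above the cutoff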
INS promoter inh cell count: recorded beside INS promoter inh, whose call it bears; normalized cell count, %; measured here: cell count, toxicity; reference of the scale not given here;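 cells exposed to compound for 48 h; stained nuclei by imaging scaled within each plate; lower means fewer cells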
HSV augment primary fold: also measured in HSV augment; calls as there; fold increase; compound at 10 µM; measured here: primary screen fold increase 10 uM; tested in PC3 cells;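 GFP signal in the first replicate; 1 = infected wells without compound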
* hit, by the source's call; i = inactive; ? = inconclusive; · = no result given.

SMILES	HSV augment	HSV augment primary fold	PKD1 inh	GALR2 agonist	RGS16-Gao	INS promoter inh	INS promoter inh cell count
COC(=O)C1=C(C)N(CCc2ccc(OC)c(OC)c2)C(=O)/C1=C\N(C)C	i	1.02	6.2	-1.1	97.0	·	·
Cn1c(CN2CCCCC2)nc2cc(NC(=O)c3ccc(F)cc3)ccc21	i	0.8	6.3	-1.6	96.2	·	·
CCOC(=O)c1ccc(Nc2nc(C)cc(=O)[nH]2)cc1	i	1.04	-4.5	-1.1	174.3	25.0	135.2
O=C(Nc1c[nH]c(=O)[nH]c1=O)c1ccc([N+](=O)[O-])cc1	i	0.92	-1.1	·	106.4	·	·
CCOC(=O)N1CCC(NC(=O)CCC(=O)c2ccccc2)CC1	i	0.9	-10.7	-1.4	83.2	-7.1	106.8
CC(=O)Oc1c(-c2ccco2)oc2ccccc2c1=O	?	·	-2.7	·	97.4	29.4	34.7
CCc1nn(-c2cc(Cl)ccc2OC)c2c1C(=O)CCC2	i	0.93	3.0	-2.0	115.4	-57.1	101.8
CCN(C(=O)CSc1nnc2ccccn12)C1CCS(=O)(=O)C1 (configuration not stated)	i	1.07	9.8	·	102.0	31.6	93.7
CC(C)CC(=O)c1c[nH]c(C(=O)NCCCn2ccnc2)c1	i	0.88	-12.4	-1.9	103.8	·	·
CCc1c(C(=O)OCc2ccccc2)[nH]c(C)c1C	i	0.77	·	·	101.7	·	·
CC(=O)N=C(N)Sc1nc2ccccc2[nH]1	i	1.01	0.3	-3.2	115.6	60.0	71.2
COc1ccc(C2/C=C\CN(C(=O)c3ccc(C)cc3)CC(=O)N2Cc2ccc(F)cc2)cc1 (configuration not stated)	i	0.82	·	·	94.5	·	·
c1ccc(-c2nnc3ccc(N4CCC5(CC4)OCCO5)nn23)cc1	i	0.95	5.4	0.3	100.0	18.2	103.9
O=C(NNC(=O)c1sccc1-n1cccc1)Nc1ccccc1	i	1.06	-8.8	·	94.1	·	·
Cc1noc(C)c1CSc1cc(C)c2ccccc2n1	i	0.88	-0.3	-1.8	99.7	-15.2	134.1
CCC(=C(c1ccc(OC)cc1)c1ccc(OC)cc1)c1cn(CC(O)CN2CCN(C)CC2)c2ccccc12 (configuration not stated)	·	·	22.1	-1.7	102.0	35.5	114.2
O=C(O)CCCCn1c(SCC(=O)Nc2ccccc2C(F)(F)F)nc2ccsc2c1=O	i	1	-3.6	1.3	108.4	16.7	99.6
CCOC(=O)c1nnn(-c2nonc2N)c1-c1ccccc1	i	0.9	1.7	-2.5	95.1	-61.5	82.4
CCNC(=O)/C(=C\c1ccccc1)NC(=O)/C=C/c1ccccc1	i	0.95	-1.0	-0.5	47.2	16.2	76.5
COc1ccc(C2C(C(=O)c3ccco3)=C(O)C(=O)N2CC2CCCO2)cc1 (configuration not stated)	i	1.14	-7.5	·	95.5	·	·
CN(C)CCNc1oc(COc2ccc(Cl)cc2Cl)nc1C#N	i	0.89	4.0	-5.9	141.5	-26.5	122.1
C=CCn1c(=O)c(C(=O)NCCc2ccccc2)c(O)c2ccccc21	i	0.94	-15.7	-1.2	91.6	-51.5	114.1
CCOC(=O)C1=C(N)OC2=C(C(=O)CCC2)C1c1cccnc1 (configuration not stated)	i	0.73	-4.3	-0.9	99.9	·	·
CCCN(c1ccc(C(C)C)cc1)S(=O)(=O)c1c(C)noc1C	i	1.09	2.0	-1.4	104.8	-17.9	128.8
CC(=O)Nc1ccc(Oc2cc(C#N)c(C#N)cc2N2CCOCC2)cc1	i	0.997	-5.2	-0.7	98.2	-7.1	80.3

(listing goes on)
SMILES	HSV augment	HSV augment primary fold	PKD1 inh	GALR2 agonist	RGS16-Gao	INS promoter inh	INS promoter inh cell count
Cc1cccc(NS(=O)(=O)c2ccc3c(c2)Cc2cc(S(=O)(=O)Nc4cccc(C)c4C)ccc2-3)c1C	i	0.88	0.3	-0.7	105.1	10.0	107.8
CCc1ccc(NC(=O)COc2ccc(/C=C(/C#N)c3nc4ccccc4[nH]3)cc2OC)cc1	·	·	-4.5	-2.7	99.8	·	·
CCOC(=O)c1c(NC(=O)CSc2nncs2)sc(C)c1-c1ccccc1	i	0.84	-3.8	-0.1	110.2	-8.1	70.4
O=S(=O)(c1ccc(Cl)cc1)N1CCCC1c1nc(-c2ccc(Cl)cc2)no1 (configuration not stated)	i	0.94	-0.3	-0.4	68.2	-12.5	96.2
O=C(CCCc1nc(-c2ccccc2)no1)Nc1cccnc1	i	0.87	-8.6	-0.8	100.9	·	·
CCN(CC)S(=O)(=O)c1cc(NC(=O)CSc2nnc(-c3cccs3)o2)ccc1C	i	0.9	2.1	0.1	101.2	·	·
COc1ccc(OC)c(NS(=O)(=O)c2ccc3c(c2)CCC(=O)N3)c1	i	0.95	-7.5	-0.2	97.5	-12.1	82.9
COc1ccc(-n2c(Cc3cccn3C)nnc2SCC(=O)N2CCC(C)CC2)cc1	i	1.13	-13.0	-0.6	105.2	·	·
CC(C)(C)c1ccccc1OCCCCCn1ccnc1	i	0.94	-0.2	·	104.1	-28.6	75.4
CCc1ccc(-c2cc(C(F)(F)F)n3nc(C(=O)Nc4cnn(Cc5ccccc5C)c4)cc3n2)s1	i	0.67	10.8	2.2	97.3	-42.9	100.0
Cc1ccc(OCCN2CCN(CC(O)Cn3c4ccccc4c4ccccc43)CC2)cc1 (configuration not stated)	i	0.73	-2.5	2.7	176.1	·	·
COc1ccc(OCCNC(=O)c2ccccc2OCC(=O)Nc2ccc(NC(C)=O)cc2)cc1	i	0.8	-5.5	-1.7	104.3	-15.4	96.1
CCOC(=O)Cn1c2c(c(=N)c3c1CCC3)CCCC2	i	0.97	-1.4	-0.5	110.0	-13.3	106.7
CCN(CC)C(=O)CN(c1cc2c(cc1OC)oc1ccccc12)S(=O)(=O)c1ccccc1	i	0.99	0.8	-1.9	103.8	-13.3	140.8
CCCCC(O)(C(NC=O)C(=O)OC)C(F)(F)F (configuration not stated)	i	1.09	-5.0	-0.8	99.0	-5.6	167.9
Oc1ccc(/C=C/c2ccc3ccccc3n2)cc1	i	0.89	3.3	·	91.7	-86.7	67.0
CN(CCc1ccccn1)Cc1ccc(Cl)cc1Cl	i	0.97	-2.6	-3.1	97.9	-18.8	82.4
CCCN(CCC)S(=O)(=O)c1ccc(C(=O)Nc2nc3c(s2)CCc2ccccc2-3)cc1	i	0.8	-8.7	0.1	105.1	-37.0	135.8
CCCOc1ccc(C(CC(=O)O)NS(=O)(=O)c2ccc(NC(C)=O)cc2)cc1 (configuration not stated)	·	·	-11.1	-0.5	100.2	22.2	118.9
COc1ccc(NC(=O)C2CCN(c3cc(C)nc(-c4ccccc4)n3)CC2)cc1	i	0.95	-8.2	-0.5	101.7	-7.1	117.4
O=C(/C=C/c1ccccc1)NCCSc1ccc(Cl)cc1	i	0.92	0.4	-4.8	99.7	-75.9	115.7
COc1cccc(-c2csc(N3CCN(C(=S)Nc4ccc(Cl)cc4)CC3)n2)c1	i	0.83	-3.9	-3.3	90.3	·	·
CCCn1c(=N)n(CCOCCOCCn2c(=N)n(CCC)c3ccccc32)c2ccccc21	·	·	10.6	-1.6	·	-5.0	88.1
Cc1c(NC(=O)C(C)N2C(=O)NC3(CCC(C)CC3)C2=O)c(=O)n(-c2ccccc2)n1C (configuration not stated)	i	1.03	-0.2	·	99.7	-23.5	68.1
COc1cccc(CN(C)CC(=O)Nc2sc3c(c2C#N)CCC3)c1	i	1.19	-2.8	·	97.1	·	·

(listing goes on)
SMILES	HSV augment	HSV augment primary fold	PKD1 inh	GALR2 agonist	RGS16-Gao	INS promoter inh	INS promoter inh cell count
CS(=O)(=O)c1nc(-c2ccc(Br)cc2)cc(-c2ccccc2)c1C#N	i	0.52	-4.9	-2.7	104.8	35.7	140.6
CCC(C)(C)C1CCC(=NNC(=S)Nc2cccnc2)CC1 (configuration not stated)	i	0.99	-6.0	·	98.6	·	·
COc1ccc(NC(=O)c2c([N+](=O)[O-])c(C(C)(C)C)nn2C)cc1	i	0.88	·	·	103.7	·	·
O=C(O)c1ccccc1CSc1ncn[nH]1	i	1.07	-4.1	-1.3	95.7	-7.7	111.3
CC(C(=O)N1CCN(C)CC1)N1C(=O)c2ccccc2C1=O (configuration not stated)	i	0.69	-8.1	-1.4	102.9	2.7	110.6
CC1=CC(c2ccccc2)n2nc(NS(=O)(=O)c3ccc(C)cc3)nc2N1 (configuration not stated)	i	1.35	-2.9	-0.4	94.2	·	·
Cc1c(Cl)cccc1N1CC(C(=O)Nc2nccs2)CC1=O (configuration not stated)	i	0.89	-6.5	-1.5	98.0	·	·
COCCCNC(CC(=O)Nc1ccccc1C(=O)OC)C(=O)O (configuration not stated)	·	·	-11.2	-2.5	·	-6.9	29.3
Cc1[nH]c2ccccc2c1N=Nc1cccc(C(=O)O)c1	i	0.96	2.5	0.0	103.1	51.6	148.2
CC(c1ccccc1)n1cc(C(=O)NCCN2CCOCC2)nn1 (configuration not stated)	i	1.05	1.6	-0.7	103.0	-28.9	59.3
COC(=O)c1cc(=O)nc2scc(C)n12	i	1.04	-2.4	0.1	55.6	-5.0	97.0
CCC(CC)C(=O)Nc1cccc(C(=O)N2CCOCC2)c1	i	1.04	-6.5	-0.2	103.2	22.1	54.6
COc1ccc2oc(N)c(C=O)c(=O)c2c1	i	0.98	·	·	98.2	·	·
CCOC(=O)C1Cc2cc3c(cc2C1=O)CC(C(=O)OCC)C3=O (configuration not stated)	i	1	-7.9	0.4	98.2	·	·
O=C(NCc1ccc2c(c1)OCO2)C(=S)N1CCOCC1	i	0.94	0.4	·	102.2	·	·
CCOC(=O)N1CCC(NC(=O)C2CCN(S(=O)(=O)c3c(C)noc3C)CC2)CC1	i	0.99	-0.2	-0.9	97.1	-7.1	151.9
C=CCN1C(=O)C(Cc2ccc(OC)cc2)SC1=Nc1ccc(C(=O)O)cc1 (configuration not stated)	i	0.98	-3.4	-1.1	96.3	29.6	89.6
CCCCNCc1cc(Br)c(OCC(=O)NCc2ccccc2)c(OC)c1	i	0.82	-8.9	·	106.2	-64.7	106.4
CCOC(=O)c1c(NC(=O)c2noc(C)c2[N+](=O)[O-])sc(C(C)=O)c1C	i	1.04	9.9	·	100.1	·	·
COc1ccccc1N(C)S(=O)(=O)c1ccc(C(=O)OC(C)C(=O)NCc2ccc3c(c2)OCO3)cc1 (configuration not stated)	i	0.93	-1.9	·	100.2	·	·
COc1ccc(OC)c(NC(=O)[C@@H]2CCCN2C(=O)c2cccs2)c1	i	0.98	-1.7	-0.8	108.7	-15.4	127.3
Cc1cc(C)c2c(=O)[nH]c(SCC(=O)c3ccc(C(C)C)cc3)nc2n1	i	0.83	-2.9	-0.9	12.3	-3.1	119.0
Cc1ccc(SC(CC(=O)c2ccc(C)cc2)C(=O)O)cc1 (configuration not stated)	i	1	0.7	-1.5	108.0	-18.8	56.7
COC(=O)c1cc(S(=O)(=O)N2CCC(C)CC2)ccc1F	i	0.86	-6.1	-1.0	106.1	50.0	135.6
CCN(CCCNC(=O)C1CCN(S(=O)(=O)c2cnc[nH]2)CC1)c1ccccc1	i	0.88	-8.3	1.1	99.2	20.0	77.6

Remaining list, next part
SMILES	HSV augment	HSV augment primary fold	PKD1 inh	GALR2 agonist	RGS16-Gao	INS promoter inh	INS promoter inh cell count
CCOC(=O)c1ccc(NC2c3ncccc3C(=O)N2Cc2ccc(F)cc2)cc1 (configuration not stated)	i	0.98	3.0	-3.2	95.6	57.1	144.3
c1ccc2[nH]c(SN3CCOCC3)nc2c1	i	0.98	2.0	-1.4	104.7	-21.1	137.5
O=C(C(c1ccccc1)c1ccccc1)N1CC[C@@]2(O)CCCC[C@H]2C1	i	1.07	·	·	100.7	·	·
CS(=O)(=O)N1CCc2cc(S(=O)(=O)Nc3ccc4c(c3)OCCO4)ccc21	i	0.7	-15.0	-4.2	99.9	-7.1	123.8
O=C(O)COc1ccc2c(c1)OCCO2	i	1.01	4.5	-0.1	104.9	·	·
COc1ccc(-n2c(CNC(=O)COc3ccc(Cl)cc3)n[nH]c2=S)cc1	i	1.24	-0.8	·	90.0	35.0	95.2
CCOc1ccc(OCC)c(NC(=O)C2C3C=CC(O3)C2C(=O)NCc2ccco2)c1 (configuration not stated)	i	0.78	-7.2	-1.4	104.0	·	·
CCCN(CCC)c1nc(N(CCC)CCC)[nH]c(=O)n1	i	1.16	-2.6	·	9.2*	·	·
CCN(CC)S(=O)(=O)c1cccc(-c2n[nH]c(=S)n2C)c1	i	1.04	-0.2	·	104.7	-20.0	75.3

A stretch of the results above, as a working copy:
SMILES	HSV augment	HSV augment primary fold	PKD1 inh	GALR2 agonist	RGS16-Gao	INS promoter inh	INS promoter inh cell count
CCOc1ccc(OCC)c(NC(=O)C2C3C=CC(O3)C2C(=O)NCc2ccco2)c1 (configuration not stated)	i	0.78	-7.2	-1.4	104.0	·	·
CCCN(CCC)c1nc(N(CCC)CCC)[nH]c(=O)n1	i	1.16	-2.6	·	9.2*	·	·
CCN(CC)S(=O)(=O)c1cccc(-c2n[nH]c(=S)n2C)c1	i	1.04	-0.2	·	104.7	-20.0	75.3
